Compound activity (PubChem BioAssay)
NOMO-1 viab: STK33 inhibitor candidate reducing NOMO-1 cell viability. inhibition, % (concentration not given with the values). 37,000 compounds, 7.5% hits. AID 2330. NOMO-1 AML viability, CellTiter-Glo luminescence, 72 h;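 active = most replicates above 80%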;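 note: wells of about 30 µL received 25 nL stock; 0% = median of vehicle wells and 100% = reference inhibitor level; the first replicate is given; inactives centre near 10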
Starred values were filed as active, the others as inactive. An excerpt, so the mix of outcomes need not match the whole.

SMILES | NOMO-1 viab
O=C(CN1C(=O)c2ccccc2S1(=O)=O)Nc1cc(C(F)(F)F)ccc1Cl | -2
Cc1ccc(S(=O)(=O)N(C)CC(=O)Nc2ccccc2Sc2ccccc2)cc1 | 9
Cc1cccc(C)c1OCC(=O)Nc1sc(C)c(C)c1C(N)=O | 50
CCC1(CC)C(=O)N(CC(=O)OC)C(=O)N(C)C1=S | 24
COc1ccc(CN(C)C[C@H]2Oc3ccc(NS(=O)(=O)c4ccc(F)cc4)cc3C(=O)N([C@H](C)CO)C[C@H]2C)cc1 | 19
Cc1c(NC(=O)COc2cc(Cl)c(Cl)cc2Cl)cccc1-c1nc2ccccc2o1 | 31
C[C@H]1CN([C@@H](C)CO)C(=O)c2cc(NC(=O)Cc3cn(C)c4ccccc34)ccc2O[C@H]1CN(C)Cc1ccc(-c2ccccc2)cc1 | 38
COc1ccc(N(C(=O)c2cccnc2)S(=O)(=O)c2cccc([N+](=O)[O-])c2)cc1 | 39
C[C@H]1CN([C@@H](C)CO)C(=O)c2cc(NC(=O)CCC(F)(F)F)ccc2O[C@H]1CN(C)S(=O)(=O)c1ccccc1 | 5
CC(C)(C)c1ccc(S(=O)(=O)CC(O)CSc2nc3c(cc2C#N)CCCC3)cc1 (stereo unspecified) | 0
C[C@H]1CN([C@@H](C)CO)C(=O)c2cc(NC(=O)c3ccncc3)ccc2O[C@H]1CN(C)Cc1ccncc1 | -1
S=C(NCc1csc2ccccc12)NCC1CC1 | 4
Cc1noc(C)c1NC(=O)N(C)C[C@H]1Oc2ccc(NC(=O)NC3CCCCC3)cc2CC(=O)N([C@H](C)CO)C[C@H]1C | -11
COc1cccc(C2CC(C(F)(F)F)n3nc(C(=O)Nc4cc(C)nn4-c4ccccc4)cc3N2)c1 (stereo unspecified) | 21
Cc1ccc(S(=O)(=O)N(C)C[C@@H]2Oc3ccc(NS(=O)(=O)c4ccc(Cl)cc4)cc3CC(=O)N([C@H](C)CO)C[C@H]2C)cc1 | 16
C[C@@H]1CN([C@@H](C)CO)C(=O)Cc2cc(NC(=O)Cn3cnnn3)ccc2O[C@@H]1CN(C)Cc1ccc(C(F)(F)F)cc1 | -16
COc1ccc(NC(=O)Nc2cccc3c2O[C@H](CN(C)Cc2ccncc2)[C@H](C)CN([C@@H](C)CO)C3=O)cc1 | 23
CCc1ccc(/C(C#N)=C/C=C/c2ccccc2)cc1 | 115*
C[C@@H]1CN([C@@H](C)CO)C(=O)c2cccc(NC(=O)C3CCCCC3)c2O[C@@H]1CN(C)Cc1ccncc1 | -8
Cc1ccc(NC(=O)CSc2nnc(-c3ccc(Br)cc3)o2)cc1Cl | -16
Cc1ccc(C(=O)O)cc1S(=O)(=O)NCCCO | 44
C[C@@H]1CN([C@@H](C)CO)C(=O)c2cc(NC(=O)CCC(F)(F)F)ccc2O[C@@H]1CN(C)C(=O)Nc1ccccc1 | -14
C[C@H]1CN([C@@H](C)CO)C(=O)c2cc(NC(=O)Nc3ccccc3)ccc2O[C@@H]1CN(C)S(=O)(=O)c1cn(C)cn1 | 10
C[C@H](CO)N1C[C@H](C)[C@@H](CN(C)S(C)(=O)=O)Oc2ccc(NC(=O)C3CC3)cc2C1=O | -26
N#Cc1c(N)nc(Sc2ccc(Cl)cc2)c(C#N)c1-c1ccccc1 | 102*
Cc1ccc(S(=O)(=O)Nc2cccc3c2O[C@@H](CN(C)S(=O)(=O)c2ccc(F)cc2)[C@H](C)CN([C@H](C)CO)C3=O)cc1 | -6
COc1ccc(NC(=O)N(C)C[C@H]2Oc3c(NS(=O)(=O)c4ccc(Cl)cc4)cccc3C(=O)N([C@H](C)CO)C[C@@H]2C)cc1 | 29
C[C@@H]1CN([C@@H](C)CO)C(=O)Cc2cc(NC(=O)c3ccncc3)ccc2O[C@@H]1CN(C)S(=O)(=O)c1cccs1 | -9
C[C@@H]1CN([C@H](C)CO)C(=O)c2cccc(NC(=O)NC3CCCCC3)c2O[C@H]1CN(C)Cc1ccc(C(F)(F)F)cc1 | 101*
C[C@H](CO)N1C[C@H](C)[C@H](CN(C)S(=O)(=O)c2ccc(Cl)cc2)Oc2c(NC(=O)CCCCCC(=O)Nc3ccccc3N)cccc2C1=O | 119*
C[C@@H]1CN([C@H](C)CO)C(=O)c2cccc(NC(=O)Nc3ccc4c(c3)OCO4)c2O[C@H]1CN(C)Cc1ccncc1 | -9
COc1ccc(NC(=O)N(C)C[C@H]2Oc3ccc(NC(=O)Cc4ccccc4)cc3C(=O)N([C@@H](C)CO)C[C@H]2C)cc1 | 14
COCC1OC(OC(C)(C)C2CCC3(C)C=C(C4CCC5C4(C)CC(O)C4OC(C(C)(C)OC6OC(CO)C(O)C(O)C6NC(C)=O)CCC45C)CCC3O2)C(NC(C)=O)C(O)C1O (stereo unspecified) | 51
CC12CCC(C(=O)O)(c3nc4ccc5ncccc5c4nc31)C2(C)C (stereo unspecified) | -4
CNC[C@H]1Oc2ccc(NC(=O)C3CCCCC3)cc2CC(=O)N([C@@H](C)CO)C[C@@H]1C | -7
COc1ccc(NC(=O)C(C)N(c2ccc(Cl)cc2)S(C)(=O)=O)c(OC)c1 (stereo unspecified) | -13
N=c1ncn(Cc2ccccc2)c2nc(SCC(=O)O)[nH]c12 | 0
CCc1cccc(C)c1NC(=O)CSc1nnc(-c2ccc(Cl)cc2Cl)n1C | 6
CN(CC(=O)Nc1ccc(Cl)cc1C(F)(F)F)S(=O)(=O)c1ccc(Br)cc1 | -12
C[C@@H]1CN([C@@H](C)CO)C(=O)c2cc(N(C)C)ccc2O[C@@H]1CN(C)C(=O)Nc1ccc2c(c1)OCO2 | 9
O=S(=O)(c1ccc(-c2ccccn2)s1)N1CCCCC1 | 15
C[C@@H]1CN([C@@H](C)CO)C(=O)c2cccc(NC(=O)Nc3ccc(F)cc3)c2O[C@H]1CN(C)Cc1ccc(C(=O)O)cc1 | 18
C[C@H]1CN([C@@H](C)CO)C(=O)c2cccc(NC(=O)Nc3ccc4c(c3)OCO4)c2O[C@H]1CN(C)C(=O)Nc1cccc2ccccc12 | 35
C[C@@H]1CN([C@H](C)CO)C(=O)c2cc(NC(=O)Cn3cnnn3)ccc2O[C@H]1CN(C)Cc1ccc(C(=O)O)cc1 | -8
Cc1cccc(-c2nc3cc(NC(=O)COc4ccc([N+](=O)[O-])cc4)ccc3o2)c1 | -13
Cc1ccc(Oc2ccc(C)c(C)c2)cc1C | 48
CC(C)NC(=O)Nc1ccc2c(c1)C(=O)N([C@H](C)CO)C[C@H](C)[C@@H](CN(C)Cc1ccc(C(=O)O)cc1)O2 | -10
Cc1ccc(-c2nnc(N3CCN(C(=O)CSc4nc5ccccc5o4)CC3)c3ccccc23)cc1 | 23
O=C(CSc1ncn[nH]1)c1ccc2c(c1)OCCO2 | 11
COc1cc2nc(COc3ccccc3[N+](=O)[O-])oc(=O)c2cc1OC | 12
O=C1C(C=NC(CO)(CO)CO)=C(O)c2ccccc21 | 33
C[C@@H]1CN([C@@H](C)CO)C(=O)c2cccc(NS(C)(=O)=O)c2O[C@H]1CN(C)Cc1ccc(C(F)(F)F)cc1 | 27
COc1ccc(NC(=O)Nc2ccc3c(c2)C(=O)N([C@@H](C)CO)C[C@H](C)[C@@H](CN(C)C(=O)Nc2ccc4c(c2)OCO4)O3)cc1 | -7
COc1cc(OC)cc(-c2nnc(SCC(=O)Nc3ccc(Cl)cc3)n2-c2ccc(F)cc2)c1 | 25
CNC[C@H]1Oc2ccc(NC(=O)CCN3CCOCC3)cc2CC(=O)N([C@@H](C)CO)C[C@@H]1C | -11
C[C@H]1CN([C@@H](C)CO)C(=O)c2cc(NC(=O)Cn3cnnn3)ccc2O[C@@H]1CN(C)Cc1ccncc1 | -15
C[C@@H]1CN([C@H](C)CO)C(=O)c2cccc(NC(=O)C3CCOCC3)c2O[C@H]1CN(C)Cc1ccc(C(=O)O)cc1 | 14
CC(C)(C)c1cc2oc3c(c2c(C=NCc2ccncc2)c1O)CCCC3 | 6
COc1ccc(OC)c(NC(=O)COc2ccc3c4c(c(=O)oc3c2)CCCC4)c1 | 8
C[C@@H]1CN([C@@H](C)CO)C(=O)c2cccc(NS(=O)(=O)c3ccc(F)cc3)c2O[C@H]1CN(C)C(=O)Nc1cccc2ccccc12 | -9

3 entries out of the list, sorted by length of the SMILES, low to high.
SMILES | NOMO-1 viab
COc1cc2nc(COc3ccccc3[N+](=O)[O-])oc(=O)c2cc1OC | 12
C[C@@H]1CN([C@H](C)CO)C(=O)c2cccc(NC(=O)C3CCOCC3)c2O[C@H]1CN(C)Cc1ccc(C(=O)O)cc1 | 14
C[C@@H]1CN([C@@H](C)CO)C(=O)c2cccc(NS(=O)(=O)c3ccc(F)cc3)c2O[C@H]1CN(C)C(=O)Nc1cccc2ccccc12 | -9

The list continues:
SMILES | NOMO-1 viab
C[C@@H]1CCCCO[C@@H](CN(C)C(=O)Nc2ccc(F)cc2)[C@@H](C)CN([C@H](C)CO)C(=O)c2cc(NC(=O)C3CCCCC3)ccc2O1 | 17
Cc1ccc(NC(=O)CSC(=N)N)cc1 | -14
CC(C)NC(=O)N(C)C[C@H]1Oc2c(NC(=O)c3ccc(-c4nccs4)cc3)cccc2C(=O)N([C@@H](C)CO)C[C@@H]1C | -12
CCc1ccc(-n2c(SCC(=O)Nc3cccc(C)c3)nnc2-c2ccccc2)cc1 | 71
C[C@@H]1CN([C@@H](C)CO)C(=O)c2cc(NC(=O)Nc3ccc(F)cc3)ccc2O[C@@H]1CN(C)Cc1ccc(-c2ccccc2)cc1 | 115*
CS(=O)(=O)N(CC(=O)Nc1ccccc1-c1ccccc1)c1cccc(C(F)(F)F)c1 | 26
COc1ccc(C)cc1S(=O)(=O)N1CCCC(C(=O)Nc2ccccc2F)C1 (stereo unspecified) | 17
C[C@@H]1CN([C@H](C)CO)C(=O)c2cccc(NC(=O)Nc3cccc4ccccc34)c2O[C@@H]1CN(C)S(=O)(=O)c1cccs1 | 49
Cc1ccc(S(=O)(=O)NC(C)(C)CSc2nnc(N)s2)cc1 | 13
CCOC(=O)CS(=O)(=O)c1nc(-c2ccc(F)cc2)cc(C(F)(F)F)n1 | 135*
O=C1C(=O)N(Cc2ccc(Cl)c(Cl)c2)c2ccccc21 | 97*
C[C@H](CO)N1C[C@H](C)[C@@H](CN(C)Cc2ccc(-c3ccccc3)cc2)Oc2ccc(NC(=O)c3ccncc3)cc2C1=O | 7
C[C@H](CO)N1C[C@H](C)[C@@H](CN(C)Cc2ccc(C(=O)O)cc2)Oc2c(NC(=O)Nc3cccc4ccccc34)cccc2C1=O | 11
COc1ccccc1CCNC(=O)c1cc(-c2cccs2)nc2ccccc12 | 36
Cc1ccc(NC(=O)CSc2nc3sc4c(c3c(=O)n2-c2ccccc2)CCCC4)c(C)c1 | 60
COC(=O)C(NC(=O)c1cccc(NC=O)c1O)C(C)O (stereo unspecified) | -9
COc1ccc(S(=O)(=O)N(C)C[C@H]2Oc3c(NC(=O)c4nc5ccccc5s4)cccc3C(=O)N([C@@H](C)CO)C[C@H]2C)cc1 | 61
C=CCOc1ccc2ccccc2c1CNc1nn[nH]n1 | -10
O=C(Nc1sc2c(c1C(=O)NCc1ccco1)CCCC2)c1cccs1 | 22
C[C@@H]1CN([C@@H](C)CO)C(=O)Cc2cc(NC(=O)Cn3cnnn3)ccc2O[C@@H]1CN(C)S(C)(=O)=O | -14
Cc1ccc(S(=O)(=O)N(C)C[C@H]2Oc3ccc(NC(=O)Cc4cn(C)c5ccccc45)cc3C(=O)N([C@@H](C)CO)C[C@H]2C)cc1 | -6
Nc1ccc(Oc2ccccc2)cc1 | 34
COc1ccc(Nc2nc(N)nc(CSc3nc4cc(OC)ccc4s3)n2)cc1 | 23
C[C@@H]1CN([C@@H](C)CO)C(=O)c2cccc(NS(=O)(=O)c3cccs3)c2O[C@@H]1CN(C)S(C)(=O)=O | 18
O=C(Nc1cccc(C(F)(F)F)c1)Nc1cccc(S(=O)(=O)N2CCOCC2)c1 | 36
CCN(CC(=O)Nc1cccc(C(C)=O)c1)S(=O)(=O)c1ccc(C)cc1 | -13
CCN(CC(=O)Nc1cc(C(F)(F)F)ccc1Cl)S(=O)(=O)c1ccc(C)cc1 | 13
CC(C)NC(=O)N(C)C[C@@H]1Oc2ccc(NC(=O)NC3CCCCC3)cc2C(=O)N([C@H](C)CO)C[C@H]1C | -1
O=C(Nc1ccccc1Cl)c1cc2ccccc2oc1=O | 41
C[C@@H]1CN([C@H](C)CO)C(=O)Cc2cc(NS(=O)(=O)c3cn(C)cn3)ccc2O[C@H]1CN(C)C(=O)Nc1ccc2c(c1)OCO2 | 16

5 compounds drawn at random from the list so far:
SMILES | NOMO-1 viab
COc1ccc(S(=O)(=O)N(C)C[C@H]2Oc3c(NC(=O)c4nc5ccccc5s4)cccc3C(=O)N([C@@H](C)CO)C[C@H]2C)cc1 | 61
CC(C)NC(=O)N(C)C[C@@H]1Oc2ccc(NC(=O)NC3CCCCC3)cc2C(=O)N([C@H](C)CO)C[C@H]1C | -1
CCN(CC(=O)Nc1cccc(C(C)=O)c1)S(=O)(=O)c1ccc(C)cc1 | -13
Nc1ccc(Oc2ccccc2)cc1 | 34
COc1ccc(Nc2nc(N)nc(CSc3nc4cc(OC)ccc4s3)n2)cc1 | 23

Next section.
SMILES | NOMO-1 viab
C[C@@H]1CN([C@@H](C)CO)C(=O)c2cc(NC(=O)Nc3ccc(F)cc3)ccc2O[C@@H]1CN(C)Cc1ccc(Cl)c(Cl)c1 | 113*
CC(C)NC(=O)N(C)C[C@@H]1Oc2c(NC(=O)C3CC3)cccc2C(=O)N([C@H](C)CO)C[C@H]1C | -15
COc1ccc(NC(=O)Nc2ccc3c(c2)C(=O)N([C@@H](C)CO)C[C@@H](C)[C@@H](CN(C)C(=O)Nc2ccc(F)cc2)O3)cc1 | 8
CSc1cccc(NC(=O)CSc2nnnn2-c2ccccc2)c1 | 23
C[C@H]1CN([C@@H](C)CO)C(=O)c2cc(NS(=O)(=O)c3ccc(F)cc3)ccc2O[C@@H]1CN(C)Cc1ccncc1 | 23

Compounds listed so far containing a nitro group on carbon:
SMILES | NOMO-1 viab
COc1ccc(N(C(=O)c2cccnc2)S(=O)(=O)c2cccc([N+](=O)[O-])c2)cc1 | 39
Cc1cccc(-c2nc3cc(NC(=O)COc4ccc([N+](=O)[O-])cc4)ccc3o2)c1 | -13
COc1cc2nc(COc3ccccc3[N+](=O)[O-])oc(=O)c2cc1OC | 12
